Mtb H37Rv – Mycobacterium tuberculosis H37Rv growth inhibition, cell based, confirmatory dose response (AID 1949). most inactive calls were filed without a number and no value below 0 was filed. one-dose inhibition, % at 10 µg/mL; IC50 in µg/mL for titrated hits. 1.6% of 100,000 active;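 active = confirmed in a dose series; inconclusive = about 50% or more but not retested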;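 note: bacteria grown 7 days with compound before Alamar blue readout; 0% = untreated bacteria and 100% = reference antibiotic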
Starred values were filed as active, the others as inactive; i = inactive; u = inconclusive.

nr | Compound | Mtb H37Rv
1 | COC(=O)c1ccc(NC(=O)CN(Cc2ccc(Cl)cc2)S(=O)(=O)c2ccc(C)cc2)cc1 | i
2 | O=C(O)CSc1nc2c(-c3ccco3)c3c(nc2o1)CCCC3 | i
3 | Cc1ccc2c(c1)c1c(n2CCC(=O)O)C(=O)CCC1 | i
4 | CC(=O)c1ccc(NC(=O)COc2cc(C)c(Br)c(C)c2)cc1 | i
5 | S=c1oc(-c2ccncc2)nn1CCc1ccncc1 | 7%
6 | Oc1ccc(CN2CCCCC2)c2cccnc12 | i
7 | COc1ccc(S(=O)(=O)Nc2cccc(N(C)S(C)(=O)=O)c2)cc1OC | i
8 | CCn1c(SCc2ccc(Cl)cc2Cl)nc2c1c(=O)n(C)c(=O)n2C | i
9 | Cc1ccc(NS(=O)(=O)c2ccccc2)cc1CN1C(=O)c2ccccc2C1=O | i
10 | CC(C)C(=O)N1c2ccccc2NC2=C(C(=O)CC(c3ccccc3)C2)C1c1cccs1 (stereo not given) | 32%
11 | COC(=O)C1CCCN1C(=O)c1ccc(F)cc1 (stereo not given) | i
12 | CC(=O)N(CCN(C(C)=O)c1ccccc1Cl)c1ccccc1Cl | i
13 | COc1ccc(-c2cc(-c3ccccc3)c(C#N)c(SC3CCCCC3=O)n2)cc1 (stereo not given) | i
14 | O=C(Nc1ccc(Cl)cc1C(=O)NCc1ccccc1)c1ccc(Cl)cc1Cl | 16%
15 | C=CCOc1c(Cl)cc(C2NC(=S)NC(C)=C2C(=O)Nc2cccc(C)c2)cc1OC (stereo not given) | i
16 | COc1cc(Cl)c(C)cc1NC(=O)Cc1ccccc1 | 1%
17 | CNCCOc1ccc(-c2ccccc2)cc1 | i
18 | COc1ccc(Cc2nnc(NC(=O)CS(=O)(=O)Cc3ccccc3)s2)cc1 | i
19 | CC(C)(C)c1nnc(NC(=O)CCn2cnc3ccccc3c2=O)s1 | 2%
20 | COc1ccc(OC)c(NC(=O)Cn2c(C)ccc2C)c1 | 2%
21 | Cc1ccccc1CN1C(=O)C(O)(CC(=O)c2ccncc2)c2ccccc21 (stereo not given) | 1%
22 | CCOc1ccc(S(=O)(=O)Nc2ccccc2CC)cc1 | 6%
23 | COC(=O)C1=CN(C(C)C)C=C(C(=O)OC)C1c1cc2c(cc1Br)OCO2 | i
24 | CN1CCN(NC(=O)c2ccc(Br)s2)CC1 | i
25 | OC(CC#CCN1CCCCCC1)(c1ccccc1)c1ccccc1 | i
26 | COC(=O)c1ccc(C(=O)OC)c(NC(=O)CN(c2ccc(OC)c(OC)c2)S(=O)(=O)c2ccccc2)c1 | i
27 | O=C(O)c1ccc(C(=O)c2cccc([N+](=O)[O-])c2)cc1 | i
28 | CCCC(=O)OCC(=O)c1ccc(Br)cc1 | 1%
29 | O=[N+]([O-])c1cccc(N2CCOCC2)c1 | i
30 | Cc1cc(-c2ccccc2)nc2cc(C(=O)O)nn12 | i
31 | O=C(CCCOc1ccccc1)Nc1ccccc1C(=O)N1CCOCC1 | i
32 | COC(=O)Cc1ccc(NC(=S)Nc2cccnc2)cc1 | i
33 | CCCc1cc(C(=O)NNC(=S)NCc2ccc(Cl)cc2)cs1 | i
34 | O=C(O)CCCC(=O)Nc1ccc(F)cc1 | i
35 | CCCc1cc(=O)oc2cc(OC(=O)c3cccs3)c(Cl)cc12 | 9%
36 | CCCCOc1ccc(C2SCC(=O)Nc3c2c(=O)[nH]n3C2CCCCC2)cc1 (stereo not given) | 4%
37 | Cc1cc(Br)ccc1OCC(=O)Nc1ccncc1 | i
38 | Cc1ccc(NC(=O)C2CCN(C(=O)c3cccc(Cl)c3)CC2)cc1 | 4%
39 | CCc1nnc(NC(=O)CC(C)c2ccccc2)s1 (stereo not given) | i
40 | O=[N+]([O-])c1ncn(Cc2ccc(Cl)cc2)n1 | 7.2µg/mL*

Three of the compounds above, field by field:
#35 CCCc1cc(=O)oc2cc(OC(=O)c3cccs3)c(Cl)cc12
- Mtb H37Rv = 9%

#36 CCCCOc1ccc(C2SCC(=O)Nc3c2c(=O)[nH]n3C2CCCCC2)cc1 (stereo not given)
- Mtb H37Rv = 4%

#37 Cc1cc(Br)ccc1OCC(=O)Nc1ccncc1
- Mtb H37Rv = i

(list continues)
nr | Compound | Mtb H37Rv
41 | C=CCSc1nc2ccccc2c(=O)n1-c1ccccc1C | 8%
42 | CCc1cc(OCCCCN2CCNCC2)ccc1Cl | i
43 | O=C1CC(=O)N(CCc2ccc(F)cc2)C(=O)N1 | i
44 | O=C(C1CCC(Cn2c(=S)[nH]c3ccccc3c2=O)CC1)N1CCCC1 (stereo not given) | 1%
45 | CC(Sc1ccccc1)C(=O)Nc1ccc2c(c1)OCCO2 (stereo not given) | 1%
46 | Cc1ccc(NC(=O)CSc2nnc(-c3ccc([N+](=O)[O-])cc3)n2-c2ccccc2)cc1C | u
47 | CCOc1ccc(NC(=O)Nc2cc(C)ccc2F)cc1 | i
48 | COc1ccc(C)cc1N(CC(=O)NCc1ccc(Cl)cc1Cl)S(C)(=O)=O | i
49 | CCCCOc1ccc(-c2nc(-c3cccnc3)no2)cc1 | 4%
50 | COc1ccc(-n2c(-c3ccc4ccccc4n3)n[nH]c2=S)cc1 | i
51 | O=C(CCS(=O)(=O)Cc1ccccc1)Nc1ccc(Cl)c(Cl)c1 | i
52 | COc1ccc(C(=O)NCc2cccnc2)cc1S(=O)(=O)N1CCOCC1 | 1%
53 | COc1ccccc1NC(=O)c1ccc(NC(C)=O)cc1 | i
54 | COC(=O)COc1ccc(NC(=O)c2ccc(Cl)c(Cl)c2)cc1 | 29%
55 | c1cncc(-c2nnc(SCc3nc4ccccc4[nH]3)o2)c1 | i
56 | NC(=O)CN(CCc1ccccc1)S(=O)(=O)c1ccc(Cl)cc1 | 4%
57 | O=C(NCc1ccccn1)C1CCN(S(=O)(=O)c2ccc(Cl)cc2)CC1 | 3%
58 | N#CCc1nc(-c2cc3ccccc3oc2=O)cs1 | 5%
59 | N#Cc1sc2nc(-c3cccs3)ccc2c1N | i
60 | CCOc1ccc(C(=O)NC(=S)Nc2ccc(Cl)c(C(=O)O)c2)cc1Cl | 0%
61 | Cc1cc(Cl)ccc1OCc1nnc(NC(=O)c2cccc(F)c2)s1 | i
62 | CC(=O)c1cccc(NC(=O)Nc2cc(C(C)(C)C)on2)c1 | 32%
63 | COC(=O)c1c(C(F)(F)F)cc(-c2ccccc2)nc1C | i
64 | COC(=O)c1ccc(-n2nc(C)cc2C)cc1 | i
65 | Cc1cc(/C=C2\C(=O)NC(=S)N(c3cccc(Cl)c3)C2=O)c(C)n1-c1ccc(Cl)cc1 | 5%
66 | COc1ccc(Br)cc1C(=O)Nc1ccc(F)c(Cl)c1 | 1%
67 | CC(C)(C)c1cc(C(=O)CN2CCOCC2)cc(C(C)(C)C)c1O | i
68 | CC1(C)CC(=O)C2=C(C1)Nc1[nH]c(=O)[nH]c(=O)c1C2c1cccc([N+](=O)[O-])c1 (stereo not given) | i
69 | CCN(CC)CCn1c2ccccc2c2nc(C)sc21 | i
70 | CS(=O)(=O)N(CC(=O)Nc1ccc(I)cc1)c1ccccc1F | i
71 | CC(Oc1cccc(Cl)c1)C(=O)Nc1ccc(S(N)(=O)=O)cc1 (stereo not given) | i
72 | COc1ccc(S(=O)(=O)Nc2ccc(F)cc2F)cc1Br | i
73 | Cc1ccc(NC(=O)C2CC(=O)Nc3nc4ccccc4n32)c(C)c1 (stereo not given) | i
74 | CCn1cc(/C=C(/C#N)C(N)=O)c2ccccc21 | 3%
75 | Cc1cc(C)c2c(=O)cc(C(F)(F)F)oc2c1 | i
76 | Cc1c(OCC(=O)c2ccc(N3CCCC3)cc2)ccc2c3c(c(=O)oc12)CCCC3 | i
77 | COC(=O)C1=C(C)N(C2CCCC2)C(=O)C1(NC(C)=O)C(F)(F)F (stereo not given) | 2%
78 | CCN1C(=O)c2cccc3c(NC(=O)Cc4cccc5ccccc45)ccc1c23 | i
79 | COC(=O)c1cc(S(=O)(=O)N2CCOCC2)ccc1Cl | i
80 | CCN(CC)S(=O)(=O)c1ccc(NC(=O)c2ccc(C(=O)Nc3ccc(S(=O)(=O)N(CC)CC)cc3)cc2)cc1 | 1%
81 | CCCCN(C)CCOc1cccc2ccccc12 | i
82 | O=C(Cn1c(NCCO)nc2ccccc21)c1ccco1 | i
83 | Fc1ccc(-c2n[nH]c(=S)n2Cc2ccccc2)cc1 | i
84 | O=C(NC1C2CC3CC(C2)CC1C3)c1sc2cc(Cl)ccc2c1Cl (stereo not given) | i
85 | CCOc1cc2c(cc1C(C)(C)C)NC(=O)CS2 | 7%
86 | CCN1CCN(C(=O)CN(C)S(=O)(=O)c2ccc(C)cc2)CC1 | i
87 | Cc1ccc(SCC(=O)Nc2nnc(Cc3ccccc3C)s2)cc1 | 1%
88 | O=C(CN1CCN(C(=O)N2CCOCC2)CC1)Nc1cc(Cl)ccc1Cl | i
89 | Cc1cc(NC(=O)c2cc3ccccc3o2)no1 | i
90 | COc1ccc(CC(=O)NC(=S)Nc2cccc(C)c2)cc1 | u

Further results follow.
nr | Compound | Mtb H37Rv
91 | COC(C(=O)Nc1ccccc1C(=O)NC1CCCCC1)c1ccccc1 (stereo not given) | i
92 | Oc1ccc(-c2csc(Nc3ncccn3)n2)cc1O | 4%
93 | CCCc1ccc(C(C)NC(=O)c2c(F)cccc2Cl)cc1 (stereo not given) | 4%
94 | Cn1c(SCC(=O)N2CCCC2)nnc1-c1ccc([N+](=O)[O-])cc1 | i
95 | O=C1CC(N2CCC(c3nc4ccccc4s3)CC2)C(=O)N1c1cccc(Cl)c1 (stereo not given) | i
96 | Cc1nnc(SCC(=O)Nc2ccc(OC(F)F)cc2)o1 | i
97 | CCOc1cc(C#N)cc(I)c1OCC(=O)O | i
98 | O=S(=O)(NC1CCCCC1)c1ccccc1F | i
99 | O=C(Nn1cnnc1)c1cc2ccccc2oc1=O | i
100 | Cc1ccc2c(C)nc(/N=C(/N)NC(=O)Cc3ccc(Cl)cc3)nc2c1 | 2%
101 | CCCCc1ccc(NC(=S)Nc2cccnc2)cc1 | u
102 | COc1cc(CN2CCN(Cc3ccco3)CC2)cc(OC)c1O | 5%
103 | O=C(CCN1C(=O)C2CC=C(Cl)CC2C1=O)Nc1ccc(Cl)c(Cl)c1 (stereo not given) | i
104 | CC1=CC(C)(C)N2C(=O)C(=O)c3cc(C)cc1c32 | 30%
105 | CC1=C(C(=O)OCC2CCCO2)C(c2cccs2)C2=C(CCCC2=O)N1 (stereo not given) | i
106 | CS(=O)(=O)N(CC(=O)N1CCOCC1)c1ccc(F)c(Cl)c1 | 5%
107 | CCOC(=O)c1ccc(NC(=O)C(C)Sc2ccccc2)cc1 (stereo not given) | 38%
108 | c1ccc(OCc2nn3c(Cn4nnc5ccccc54)nnc3s2)cc1 | i
109 | Cc1oc(-c2ccccc2)cc1C(=O)Nc1cccc(C(=O)O)c1 | i
110 | Cc1ccc(NC(=O)c2ccccc2OCC(=O)c2ccc([N+](=O)[O-])cc2)cc1Cl | 3%
111 | O=C(NC(=S)Nc1ccccc1C(=O)O)c1ccccc1I | i
112 | C=C(C)c1cccc(C(C)(C)NC(=O)NCC(C)C)c1 | 0%
113 | O=C(O)c1cc2n(n1)C(C(F)(F)F)CC(c1ccc3c(c1)OCO3)N2 (stereo not given) | 0%
114 | CCOC(=O)CN(c1cccc(C(C)=O)c1)S(C)(=O)=O | i
115 | Cc1ccccc1C(=O)Nc1ccccc1C(C)C | i
116 | CC1CCc2c(sc3c2c(=O)n(C)c2n[nH]c(=S)n32)C1 (stereo not given) | 0%
117 | CC1CCCN(CCCOc2cccc(Br)c2)C1 (stereo not given) | i
118 | O=Cc1ccc(OCc2ccc(S(=O)(=O)c3ccccc3)cc2)cc1 | i
119 | CCOC(=O)c1c(C)oc2ccc(OC(C)=O)cc12 | 8%
120 | O=C(Nc1ccc(S(=O)(=O)N2CCCC2)cc1)Nc1cccc(C(F)(F)F)c1 | i
121 | CCOc1cccc(OCCCN(CC)CC)c1 | i
122 | Cc1c(Cl)cccc1NC(=O)CN1CCN(CCO)CC1 | 1%
123 | Cc1ccc(-c2csc3ncn(CC(=O)N4CCCCC4)c(=O)c23)cc1C | i
124 | CCCCN1C(=O)CC(Sc2ncccc2C(=O)O)C1=O (stereo not given) | i
125 | COc1ccc(Cl)cc1C(=O)Nc1ccc2oc(-c3cccc(F)c3)nc2c1 | i
126 | Cc1cc(=O)oc2c(C)c(OCc3cccc(Br)c3)ccc12 | i
127 | CN1CCN(NC(=O)c2cc3nc(-c4ccc(Cl)s4)cc(C(F)(F)F)n3n2)CC1 | i
128 | O=C(O)c1cccc(NC(=S)NC(=O)c2cccc3ccccc23)c1 | i
129 | Cc1ccc(N2C(=O)CNC2=S)cc1 | i
130 | C=CCn1c(SCC(=O)c2ccc(Br)cc2)nnc1-c1cc2cccc(OC)c2o1 | i
131 | COC(=O)c1cc(C)sc1NC(=S)NNC(=O)c1c[nH]c2ccccc12 | 1%
132 | CC(=O)Nc1ccc(NC(=O)COc2ccccc2Cl)cc1 | i
133 | Cc1ccccc1-c1coc2cc(O)ccc2c1=O | 4%
134 | Cc1ccc(Cl)c(OCCCCN2CCCC(C)C2)c1 (stereo not given) | 9%
135 | O=C(O)CN(Cc1ccccc1)S(=O)(=O)c1ccc(F)cc1 | i
136 | CC(C)Oc1ccc(C(=O)Nc2ccc(N3CCOCC3)c(Cl)c2)cc1 | i
137 | CC(O)c1ccc(CCc2ccc(C(C)O)cc2)cc1 (stereo not given) | 5%
138 | CCCCc1c(C)nc2ccc(OC)cc2c1SCCC(=O)O | i
139 | Cc1cc2nc(SCCOC(=O)NC3CCCCC3)nc(C)c2cc1C | i
140 | CS(=O)(=O)N1CCC(C(=O)NCCc2ccccc2)CC1 | i

Remaining list, next part:
nr | Compound | Mtb H37Rv
141 | Cc1ccccc1Cn1ccc(NC(=O)c2nc3ncccn3n2)n1 | i
142 | Cc1ccc(C(=O)Nc2ccc3c(c2)Cc2ccccc2-3)c(C)c1 | i
143 | O=C(NCCOc1ccc2ccccc2c1)c1cccnc1 | i
144 | COc1cccc(C2CC(=O)NC(SCC(=O)NC3CCCCC3)=C2C#N)c1OC (stereo not given) | 2%
145 | CCC(=O)Nc1sc2c(c1C#N)CC(C)CC2 (stereo not given) | i
146 | Cc1nc(Cc2ccc(OC(C)C)cc2)[nH]c(=O)c1CC(=O)O | i

These rows are one share of the data; rates above refer to the full screens.
